# Assay outcomes deposited in PubChem by Johns Hopkins Ion Channel Center.
# KCNQ2 enhance: potentiators of rat KCNQ2 potassium channel | AID 2239, 2010 | Potassium voltage-gated channel subfamily KQT member 2 (Rattus norvegicus), O88943 | B-score at 10 µM | CHO-K1 KCNQ2, FluxOR thallium flux fluorescence; stronger effect = higher value | 0.54% of 310,000 active;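 active = fluorescence ratio B-score at least 3 SD of library B-scores, with initial fluorescence B-score within 3 SD, cut at about 5.3 in these data; same plate scores as AID 2156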;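 also: B-score of peak minus minimum over baseline fluorescence ratio after K+ and Tl+ stimulus; positive B-score means potentiation of KCNQ2 with more thallium influx and brighter signal; only the inactives scoring about 0 or higher are listed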
# Target sequence (O88943 whole entry, looked up): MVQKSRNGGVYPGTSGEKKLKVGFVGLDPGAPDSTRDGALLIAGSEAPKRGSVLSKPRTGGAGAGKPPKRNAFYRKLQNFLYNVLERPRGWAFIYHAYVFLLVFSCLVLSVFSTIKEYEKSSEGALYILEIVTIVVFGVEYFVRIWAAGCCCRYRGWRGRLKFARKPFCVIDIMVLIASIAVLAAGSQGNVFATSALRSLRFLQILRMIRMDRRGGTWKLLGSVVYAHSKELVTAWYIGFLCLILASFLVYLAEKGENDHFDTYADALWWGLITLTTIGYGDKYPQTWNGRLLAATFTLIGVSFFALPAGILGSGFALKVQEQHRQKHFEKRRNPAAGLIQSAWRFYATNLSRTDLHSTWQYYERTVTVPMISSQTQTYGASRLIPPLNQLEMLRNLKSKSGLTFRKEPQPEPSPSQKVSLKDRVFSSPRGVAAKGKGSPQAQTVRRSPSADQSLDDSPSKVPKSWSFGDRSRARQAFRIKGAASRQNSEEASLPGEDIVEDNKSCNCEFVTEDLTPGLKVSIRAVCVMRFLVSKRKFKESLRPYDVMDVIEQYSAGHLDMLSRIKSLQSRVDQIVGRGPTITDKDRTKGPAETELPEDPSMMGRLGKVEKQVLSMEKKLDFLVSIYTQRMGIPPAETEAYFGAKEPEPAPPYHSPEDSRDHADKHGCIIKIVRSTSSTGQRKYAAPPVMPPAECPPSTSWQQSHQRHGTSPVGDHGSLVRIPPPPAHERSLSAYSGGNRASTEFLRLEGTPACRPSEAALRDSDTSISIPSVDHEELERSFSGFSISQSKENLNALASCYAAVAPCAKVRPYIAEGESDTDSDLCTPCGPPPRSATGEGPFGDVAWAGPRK
# KCNQ2 enhance baseline: further read-out of KCNQ2 enhance, marked with its call; B-score; compound at 10 µM; measured here: initial fluorescence intensity artifact check;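 brightness before thallium and not channel activity; 0 = typical well and far values either way flag optical interference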
# * hit, by the source's call. Only part of the results is shown (hit frequency here may not be typical).
KCNQ2 enhance	KCNQ2 enhance baseline	canonical_smiles
1.3	-1.7	CCOC(=O)c1nnn(-c2nn3nnnc3c3ccccc23)c1C
0.03	-1.6	COCCn1c(SCC(=O)Nc2ccc(C)cc2)nc2c(oc3ccccc32)c1=O
0.01	-2.2	COC(=O)c1cc(Cl)c(NC(=O)/C=C/c2ccc(Cl)cc2Cl)cc1OC
0.28	-0.6	CC(=O)Nc1ccc(S(=O)(=O)NCC2CCC(C(=O)NCCCOC(C)C)CC2)cc1 (stereo not drawn)
2.7	-0.64	O=[N+]([O-])c1ccc2nc(-c3cccnc3)[nH]c2c1
0.71	0.85	Cc1cc(C)cc(C(=O)N2CC(C)OC(C)C2)c1 (stereo not drawn)
1.7	0.04	O=c1[nH]c(C2CCN(S(=O)(=O)c3ccc(S(=O)(=O)NC4CC4)cc3)CC2)nc2c1nnn2Cc1ccccc1
1.4	0.3	Cc1ccc(C(=O)C2CCN(S(=O)(=O)c3ccc(C(=O)O)cc3)CC2)cc1
0.04	-0.19	COC(=O)c1c(-c2ccccc2)csc1NC(=O)c1ccco1
0.82	-1.4	Cc1ccc(N2C(=O)C3NN=C(C(=O)OCc4ccccc4)C3C2=O)c(C)c1 (stereo not drawn)
0.4	-0.04	O=C(O)c1ccc(CN2C(=O)CSC2=S)cc1
0.92	0.01	CCOC(=O)C1=C(C)NC(=O)NC1c1ccc2c(c1)OCCO2 (stereo not drawn)
1	-0.15	Nc1c(C(=O)N2CCCC2)sc2nc(-c3ccccc3)ccc12
0.98	0.98	COc1cc(C(C)=O)ccc1Oc1ncnc2c1cnn2-c1ccccc1
0.16	-1.1	C[C@@H](C[C@@H](O)[C@H](O)C(C)(C)O)[C@@H]1CC[C@]2(C)C3=CC[C@H]4C(C)(C)C(=O)CC[C@]4(C)[C@H]3CC[C@@]12C

# Next results:
KCNQ2 enhance	KCNQ2 enhance baseline	canonical_smiles
0.68	0.33	CN(C)c1ccc(CNC(=O)c2ccc(CNc3c(N4CCCCC4)c(=O)c3=O)cc2)cc1
1.3	0.32	Cc1cnc(NC(=O)c2nn(C)cc2[N+](=O)[O-])s1
1	-0.41	O=C(O)c1ccc(-c2noc(-c3cccc(F)c3)n2)cc1
0.77	-0.52	Cc1ccccc1C(=O)Nc1cccc(-c2ccc3nncn3n2)c1
0.13	1.1	Cc1cccc(NC(=O)/C(C#N)=C\c2cn(CC(=O)O)c3ccccc23)c1
0.06	0.04	CCn1c(=O)n(CC)c2cc(S(=O)(=O)Nc3ccccc3C)c(C)cc21
0.1	0.9	CC(C)Cn1c(C(C)C)nc([N+](=O)[O-])c1Sc1ccc(Cl)cn1
0.91	0.1	CN(C(=O)c1ccc(Br)cc1)C1CCS(=O)(=O)C1 (stereo not drawn)
0.39	-2	CN1CCC(=NNC(=O)CN(c2cccc([N+](=O)[O-])c2)S(=O)(=O)c2ccccc2)CC1
0.42	0.1	COc1cc(/C=C(\C#N)C(=O)Nc2cccc3ncccc23)ccc1O
0.2	-2.5	CCN1CCN(c2c(Cl)cccc2NC(=O)c2ccc3nsnc3c2)CC1
11*	1.2*	S=c1[nH]c(-c2ccccc2)cs1
1.4	-0.06	CC(C)CCN1CCN(Cc2ccc(C(F)(F)F)cc2)CC1CCO (stereo not drawn)
1.3	-1.5	CN(CC(=O)Nc1ccc(F)cc1)C(=O)COC(=O)c1ccccc1
0.67	-0.12	CC(C)c1ccc(/C=C/C(=O)NC2CCCCC2)cc1

# Later entries
KCNQ2 enhance	KCNQ2 enhance baseline	canonical_smiles
0.63	-0.82	CC(C)(C)OC(=O)N1CCCC1C(=O)NCCc1ccccc1 (stereo not drawn)
0.42	-0.8	CC(C)n1c(O)c(N=NC(=O)CNC(=O)c2cccnc2)c2ccccc21
1.5	-1.5	O=C(CC1CCCC1)N1CCCC(Nc2ccc(F)cc2)C1 (stereo not drawn)
2.1	2.6	Cc1nnc(NC(=O)CSc2nnc(CCNC(=O)c3ccccc3F)n2C)s1
1.4	-1.1	CC(C)NC(=O)COC(=O)Cn1[nH]c(=O)c2ccccc2c1=O
0.01	0.82	CC(C)Nc1nnc(SCC(=O)NCc2ccc3c(c2)OCO3)s1
0.6	-1.9	CC1(C)Cc2nc(N3CCCC3)c(C#N)cc2CO1
0.39	-0.65	Cc1ccc(N/C=C(\C2OC(=O)c3ccccc32)[N+](=O)[O-])c(C)c1 (stereo not drawn)
0.01	-0.83	O=C(CN1C(=O)CCSc2ccccc21)Nc1ccc(F)cc1
2.4	0.53	O=C(Cc1ccc(S(=O)(=O)N2CCOCC2)s1)Nc1ccccc1N1CCCC1
0.02	1.3	O=C(C1=NNCC1c1ccc(Cl)cc1)C1CO1 (stereo not drawn)
9.6*	0.69*	S=c1[nH]cnc2scc(-c3ccc(Cl)cc3)c12
0.17	1	CN(c1ncc(C(F)(F)F)cc1Cl)N1C(=O)c2cccc(N)c2C1=O
0.81	-0.54	c1ccc(Nc2c(-c3ccco3)nc3ccccn23)cc1
1.2	0.51	O=S(=O)(Nc1ccc(N2CCOCC2)cc1)c1cc(Cl)ccc1Cl

# New compounds follow.
KCNQ2 enhance	KCNQ2 enhance baseline	canonical_smiles
2	0.79	CCCOC(=O)c1ccc(Nc2nc(C)cc(=O)[nH]2)cc1
0.06	0.53	Clc1ccc(-c2nc(N3CCOCC3)nc3ccccc23)cc1
1.6	0.06	Cc1nc2cc(F)ccc2n1C1CCN(C(=O)c2c(F)cccc2F)CC1
1.1	-1.9	CSC1=NC(C)(C)CC2(C)Nc3ccccc3N12 (stereo not drawn)
0.6	-0.23	CCOC(=O)c1sc(NC(=O)Nc2cccc(Cl)c2)cc1C
0.01	1.6	CCS(=O)(=O)Nc1ccc(-c2nnc(SCC(=O)c3ccc(NC(C)=O)c(OC)c3)o2)cc1
0.99	0.26	CCn1c(SCC(=O)NCc2ccccc2)nc2ccccc2c1=O
0.81	0.76	Cc1ncc(CN2CCCC(CCC(=O)NCc3ccccc3F)C2)s1 (stereo not drawn)
0.39	-0.67	O=C1CSC(c2cccnc2)N1C1CCCCC1 (stereo not drawn)
1.5	0.65	CCNC(=S)Nc1ccc2cn[nH]c2c1
0.97	-3	CCOc1ccccc1NC(=S)NC1CC2CCC1C2 (stereo not drawn)
0.76	-0.01	Nc1nc(Cl)nc2ccc(Br)cc12
0.44	-0.72	O=C(Nc1ccc(N2CCOCC2)c(Cl)c1)c1cccnc1Cl
0.47	-0.89	COc1cc(/C=N/NC2=NCCCCC2)ccc1O
0.1	-0.21	Cc1noc(/C=C/N(C)C)c1S(=O)(=O)N(C)CC(=O)N1CCc2ccccc21

# Next part
KCNQ2 enhance	KCNQ2 enhance baseline	canonical_smiles
0.34	0.55	COc1ccc(N2CCN(C(=O)c3ccc4c(=O)n(CCc5ccc(OC)c(OC)c5)c(=O)[nH]c4c3)CC2)cc1
0.3	0.52	O=C(Nc1ccccc1C(=O)NCc1cccnc1)c1ccccc1Cl
1.6	-0.75	COc1ccc(-n2ncc3c(NCc4ccccn4)ncnc32)cc1
2.7	0.33	CCCc1nnc(NC(=O)c2cc(OC)cc(OC)c2)s1
1	-1.3	COc1ccc(C(=O)N2CCN(c3nc4ccccc4o3)CC2)cc1OC
1.6	0.3	COc1ccccc1CNc1ncnc2cc(OC)c(OC)cc12
0.12	-0.28	O=C(Nc1ccccc1N1CCOCC1)c1ccccc1[N+](=O)[O-]
0.68	-1.3	CCC(=O)Nc1ccccc1C(=O)OCC(=O)c1ccc2ccccc2c1
1.5	0.37	CC12CN3CCN(CC(C3)/C1=N\NC(=O)c1ccccc1N)C2
0.05	-0.92	CCOc1ccc(NC(=O)c2cc3n(n2)C(C(F)(F)F)CC(c2ccco2)N3)cc1 (stereo not drawn)
1.2	1.4	CC(=O)N1CC[n+]2c(-c3ccc(Cl)cc3Cl)csc21
0.25	-0.94	O=C(CN1CCN(C(=O)c2ccco2)CC1)Nc1ccc2c(c1)OCO2
0.09	0.02	Cc1cc(SCc2ccc(Cl)cc2Cl)nc(=O)[nH]1
0.37	1.6	O=C(CN1CCCC1)NCC(=O)Nc1ccc(F)cc1
0.44	-0.53	CCO[C@H]1OC(C(=O)N2CCOCC2)=C[C@@H](C2CC2)[C@@H]1CCCO

# Continued (2 carried over from the part before).
KCNQ2 enhance	KCNQ2 enhance baseline	canonical_smiles
0.37	1.6	O=C(CN1CCCC1)NCC(=O)Nc1ccc(F)cc1
0.44	-0.53	CCO[C@H]1OC(C(=O)N2CCOCC2)=C[C@@H](C2CC2)[C@@H]1CCCO
0.54	0	FC(F)(F)c1ccccc1CNCc1ccncc1
0.24	0.61	CCc1c(C)sc(NC(=O)Cn2nc(C(F)(F)F)c3c2CCCC3)c1C#N
0.13	-0.23	CCCOc1ccc(C2C(C(=O)OC)=C(C)N=C3SCCC(=O)N32)cc1OCC (stereo not drawn)
0.41	-0.04	CCC1CCCCN1CCCCOc1cccc(Cl)c1 (stereo not drawn)
0.84	1.6	c1ccc(SSc2ccccn2)nc1
0.06	1.4	CCOC(=O)c1c(C)[nH]c(C)c1C(=O)COC(=O)c1ccc(OC)cc1
0.61	-2.6	CCOC(=O)c1cnc(SCC(=O)N2CCc3ccccc32)nc1N
0.04	2.2	CCOc1ccc(-c2n[nH]c(=S)c3ccccc23)cc1
0.05	-0.63	CCOc1ccc(NC(=O)COC(=O)c2c(OC)cccc2OC)cc1
0.19	-2.7	Cc1cccc(N(CC(N)=O)C2SC(=O)NC2=O)c1 (stereo not drawn)
0.51	-0.07	Cc1ccc(-n2nc3cc(C)c(N)cc3n2)cc1
2.2	-2.3	Cc1ccccc1OCCC(=O)Nc1ccc(F)c(Cl)c1
0.53	-1	O=S(=O)(Nc1nccs1)c1ccc2c(c1)OCCO2
0.33	-0.9	CN(CC(=O)Nc1ccc(F)c(Cl)c1)S(=O)(=O)c1cccc2nsnc12
0.45	-0.01	Cc1coc2cc3oc(=O)cc(C)c3cc12

# Further entries follow:
KCNQ2 enhance	KCNQ2 enhance baseline	canonical_smiles
1.1	-0.26	CCC(CC)COC(=O)C1=C(C)NC(=O)NC1c1ccc2c(c1)OCO2 (stereo not drawn)
1.4	-1.1	CC(C)(C)C1(O)CC(C(F)(F)F)=NN1C(=O)Cc1ccc([N+](=O)[O-])cc1 (stereo not drawn)
1.6	1.2	O=C(CSc1nnc(-c2cccc(F)c2)o1)N1CCCC1
0.53	0.34	Cc1noc(NS(=O)(=O)c2ccc(N/C=C/C(=O)c3ccc(F)cc3)cc2)c1C
1.3	-2.1	Cc1c(C(=O)NCCN2CCOCC2)sc2nc(-c3ccc(F)cc3)cn12
1.7	-1.3	COc1ccccc1NC(=O)CC1C(=O)Nc2c1c(=O)n(C)c(=O)n2C (stereo not drawn)
0.69	-1.1	CCOC(=O)c1ccccc1NC(=O)c1cc2ccccc2o1
0.61	-0.63	Cc1nnc(C)n1/N=C/c1ccc(C(C)C)cc1
2.8	-2.5	CC(=O)OC1C2CCC1C([N+]1(C)CCCCC1)CC2 (stereo not drawn)
0.08	-2.1	Cc1ccccc1C(=O)Nc1ccc(O)c2c(=O)cc(-c3ccccc3Cl)oc12
0.42	0.6	COc1ccc(S(=O)(=O)Cc2ccc(C(=O)NC3CCCCC3)o2)cc1
0.17	1.6	NNC(=O)c1cncc(Br)c1
2	-0.86	O=C(O)c1ccc(N2C(=O)/C(=C\c3ccccc3)N=C2c2ccccc2)cc1
0.54	-0.66	Cc1cc(OCC(=O)NCc2ccncc2)ccc1Cl
0.68	-2.4	COCCCN1CC23C=CC(O2)C(C(=O)O)C3C1=O (stereo not drawn)

# Entries listed so far that have an aryl thioether with sulfur outside any ring (9):
KCNQ2 enhance	KCNQ2 enhance baseline	canonical_smiles
0.03	-1.6	COCCn1c(SCC(=O)Nc2ccc(C)cc2)nc2c(oc3ccccc32)c1=O
0.1	0.9	CC(C)Cn1c(C(C)C)nc([N+](=O)[O-])c1Sc1ccc(Cl)cn1
2.1	2.6	Cc1nnc(NC(=O)CSc2nnc(CCNC(=O)c3ccccc3F)n2C)s1
0.01	0.82	CC(C)Nc1nnc(SCC(=O)NCc2ccc3c(c2)OCO3)s1
0.01	1.6	CCS(=O)(=O)Nc1ccc(-c2nnc(SCC(=O)c3ccc(NC(C)=O)c(OC)c3)o2)cc1
0.99	0.26	CCn1c(SCC(=O)NCc2ccccc2)nc2ccccc2c1=O
0.09	0.02	Cc1cc(SCc2ccc(Cl)cc2Cl)nc(=O)[nH]1
0.61	-2.6	CCOC(=O)c1cnc(SCC(=O)N2CCc3ccccc32)nc1N
1.6	1.2	O=C(CSc1nnc(-c2cccc(F)c2)o1)N1CCCC1

# (listing goes on)
KCNQ2 enhance	KCNQ2 enhance baseline	canonical_smiles
1.2	-0.1	O=S(=O)(c1ccc(Cl)c(NC(=S)N/N=C/c2c(F)cccc2F)c1)N1CCOCC1
0.3	-1.7	COc1ccc(N2CCN(C(=O)c3ccc4nc(N5CCCCC5)sc4c3)CC2)cc1
1	1.6	Cc1cc(C(=O)N2CCCC(N3CCN(c4cccc(Cl)c4)CC3)C2)nc(C)n1 (stereo not drawn)
2.1	-0.49	COc1ccc(Br)c(C(=O)Nn2c(C)nc3ccccc3c2=O)c1
1.7	0.96	O=C(Nc1cccnc1)c1ccc(-c2ccccc2)cc1
1.9	-0.56	Cc1cccc(C(=O)N2N=C(c3ccc(NS(C)(=O)=O)cc3)CC2c2cccs2)c1 (stereo not drawn)
0.61	-0.02	Cc1nc2nc[nH]n2c(=O)c1NS(C)(=O)=O
1	-1.9	CN(C(=O)CS(=O)(=O)c1cn(CC(=O)N2CCCCC2)c2ccccc12)c1ccccc1
1.2	1.7	CCOC(=O)C1=C(C)N(C)C(=O)NC1c1c(O)ccc2ccccc12 (stereo not drawn)
0.9	-0.33	CCn1c(CCc2ccccc2)nnc1SCC(N)=O
0.52	-3.2	COc1ccc(CCC(=O)Nc2nc3ccccc3[nH]2)cc1OC
1.2	0.28	CSCCC(NC(=O)c1ccccc1)C(=O)NCc1ccco1 (stereo not drawn)
